RecA intein inh = Mtb RecA intein splicing inhibition. inhibition, %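 (about 9 µM by stock and volumes)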. cell-free RecA intein splicing, fluorescence. AID 2221. actives 0.75% (n = 290,000); in the data active = inhibition above about 30%; inconclusive = no clear call, values can overlap the other calls;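 note: 0% = vehicle wells and 100% = reference inhibitor control wells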
Target sequence (P9WHJ3 whole entry, looked up): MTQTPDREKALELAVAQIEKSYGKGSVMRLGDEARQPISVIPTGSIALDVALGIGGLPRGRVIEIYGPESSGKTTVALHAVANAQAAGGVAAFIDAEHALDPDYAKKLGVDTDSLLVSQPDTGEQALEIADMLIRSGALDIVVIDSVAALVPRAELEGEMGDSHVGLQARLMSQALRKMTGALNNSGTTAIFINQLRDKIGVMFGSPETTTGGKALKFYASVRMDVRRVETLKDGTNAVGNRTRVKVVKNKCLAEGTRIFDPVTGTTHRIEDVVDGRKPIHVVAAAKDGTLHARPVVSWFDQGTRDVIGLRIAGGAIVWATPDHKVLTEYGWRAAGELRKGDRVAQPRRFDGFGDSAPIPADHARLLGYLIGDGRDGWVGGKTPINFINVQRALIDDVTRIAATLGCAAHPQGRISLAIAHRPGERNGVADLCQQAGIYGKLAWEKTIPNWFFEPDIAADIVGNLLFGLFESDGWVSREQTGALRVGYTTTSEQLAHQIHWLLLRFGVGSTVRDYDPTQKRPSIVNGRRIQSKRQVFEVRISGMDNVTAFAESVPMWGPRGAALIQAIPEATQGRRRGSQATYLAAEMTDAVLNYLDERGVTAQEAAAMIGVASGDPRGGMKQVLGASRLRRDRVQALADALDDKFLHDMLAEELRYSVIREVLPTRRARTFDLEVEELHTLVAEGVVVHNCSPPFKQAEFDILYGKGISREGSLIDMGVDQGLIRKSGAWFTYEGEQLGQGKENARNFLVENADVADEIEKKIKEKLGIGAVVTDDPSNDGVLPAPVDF
Mtb H37Rv = M. tuberculosis H37Rv growth inhibitors, H37Rv strain (AID 1626). actives 0.95% (n = 220,000). M. tuberculosis H37Rv growth inhibition; higher % means a stronger effect. inhibition, % at 10 µM, or IC50 in µM where a hit was titrated;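 active = confirmed in a dose series; inconclusive = inhibition above 80% but not taken into the dose series; inactive = below 80% or under 30% at every dose of the series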;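 note: bacteria incubated seven days before Alamar blue readout; 0% = bacteria only wells and 100% = bacteria with antibiotic wells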
YopH inh = inhibitors of Yersinia enterocolitica YopH tyrosine phosphatase; inhibition, %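 (about 10 µM by stock and volumes)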; actives 0.16% (n = 140,000); AID 898; fluorescence Ex485/Em525;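 active = inhibition of 50% or more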;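 note: controls were vehicle for no effect and minimum signal wells for full effect; inactives centre near -20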
Arbovirus inh = arbovirus infection inhibition; arbovirus infection cell-based antiviral screen; inhibition, % at 10 µM; actives 0.37% (n = 200,000); AID 1251;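 active = inhibition from about 30%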;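 note: bluetongue infection of BSR cells; cell survival read as ATP light after 72 h; 0% = infected wells without compound and 100% = uninfected wells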
Mtb betalactam = beta-lactam sensitization of Mtb H37Rv | M. tuberculosis H37Rv growth with meropenem, percent inhibition; hits of this screen are not shown here | inhibition, % at 25 µM | actives 0.27% (n = 330,000);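 active = about 74% or more and at least 40 points above the plate without the antibiotic, then above 30% in a dose series; inconclusive = first-round hits that could not be retested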;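 note: growth measured after seven days incubation then overnight dye step; 0% = bacteria only wells and 100% = bacteria with antibiotic; twin plates without the antibiotic show which effects depend on it; some results filed as inactive read as strong as hits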
Starred values were filed as active, the others as inactive. These rows are one share of the data; the hit share may differ from the screen's.

COc1cc(/C=N/NC(=O)c2cccnc2)ccc1OCC(=O)Nc1ccc(C)cc1 was read as RecA intein inh -14, Mtb H37Rv 7%, YopH inh -32, Arbovirus inh 14 and Mtb betalactam 5.
Cc1cc(C(F)(F)F)nn1CC(=O)N(C)c1ccccc1 was read as RecA intein inh -2.1, Mtb H37Rv 7%, Arbovirus inh -3 and Mtb betalactam 0.
Screening CC1CCN(CC(=O)c2ccc3c(c2)OCCO3)CC1 returned RecA intein inh -2.1, Mtb H37Rv 5%, Arbovirus inh 3 and Mtb betalactam 0.
`Cc1nnc(NC(=O)C2CCN(S(=O)(=O)c3ccc(Cl)cc3)CC2)s1` gave RecA intein inh -1.9, Mtb H37Rv 0%, Arbovirus inh -3 and Mtb betalactam -6.
`CCc1nc(Sc2nnnn2-c2ccccc2)c2c3c(sc2n1)CCCC3` gave RecA intein inh -4.9, Mtb H37Rv 8%, YopH inh -32, Arbovirus inh -14 and Mtb betalactam 9.
For O=C(CSCc1ccccc1Br)Nc1ccccc1 the results were RecA intein inh 3.2 and Mtb betalactam -4.
`Cc1csc(SCCn2c(N3CCN(c4ccccc4)CC3)nc3c2c(=O)[nH]c(=O)n3C)n1` gave RecA intein inh 1.2, Mtb H37Rv -11%, YopH inh -44, Arbovirus inh 8 and Mtb betalactam 0.
For O=C(N/C(=C/c1ccco1)C(=O)N1CCOCC1)c1cccs1 the results were RecA intein inh -0.8, Mtb H37Rv 6%, Arbovirus inh 2 and Mtb betalactam 4.
Screening CC(=O)c1ccc(N2CCN(C(=O)/C=C/c3ccc(S(=O)(=O)N4CCOCC4)cc3)CC2)cc1 returned RecA intein inh 0.1, Mtb H37Rv 1%, Arbovirus inh 1 and Mtb betalactam 4.
`Cc1ccc(OCC(=O)Oc2cccc(C)c2)cc1` gave RecA intein inh 7.4 and Mtb betalactam -4.
Screening Cc1cc(C)n(CC(O)COCc2ccccc2)n1 (configuration not stated) returned RecA intein inh -0.3, Mtb H37Rv 0%, YopH inh -35, Arbovirus inh -2 and Mtb betalactam 6.
Screening O=C(Oc1ccc(N(Cc2cccs2)C2=NS(=O)(=O)c3ccccc32)cc1)c1ccccc1F returned RecA intein inh 2.2, Mtb H37Rv -3%, YopH inh -35, Arbovirus inh -5 and Mtb betalactam 3.
`Oc1ccccc1N=Cc1sc2ccccc2c1Cl` gave RecA intein inh 2.0, Mtb H37Rv inconclusive, YopH inh -14, Arbovirus inh -18 and Mtb betalactam 96.
For c1ccc(N2CCN(c3ncnc4sc5c(c34)CCC5)CC2)cc1 the results were RecA intein inh 0.2, Mtb H37Rv -4%, YopH inh -33, Arbovirus inh 8 and Mtb betalactam 1.
For Cn1c(NCCCO)nc2ccccc21 the results were RecA intein inh -2.6, Mtb H37Rv -5%, YopH inh -6, Arbovirus inh 4 and Mtb betalactam 4.
For C[C@H](NC(=O)C1CC(=O)N(c2ccc3c(c2)OCO3)C1)C(=O)NC1CCCCC1 (some centres not stated) the results were RecA intein inh -1.3 and Mtb betalactam 3.
For Oc1c(C(c2ccco2)N2CCC3(CC2)OCCO3)sc2ncnn12 (configuration not stated) the results were RecA intein inh -3.2, Mtb H37Rv 5%, YopH inh -50, Arbovirus inh 3 and Mtb betalactam 1.
For NC(=O)CCC(=O)N1CCCC(C(=O)c2ccc3c4c(cccc24)CC3)C1 (configuration not stated) the results were RecA intein inh 2.3, Mtb H37Rv 2%, Arbovirus inh 2 and Mtb betalactam -1.
Screening Cc1nc(CCN2C(=O)c3ccccc3C2=O)cs1 returned RecA intein inh -2.6, Mtb H37Rv -4%, YopH inh -17, Arbovirus inh 6 and Mtb betalactam -19.
`C/C(=N\NC(=O)c1sccc1C)c1cccnc1` gave RecA intein inh 0.8 and Mtb betalactam -1.

Brought forward from above: 3 entries, then new ones.
For NC(=O)CCC(=O)N1CCCC(C(=O)c2ccc3c4c(cccc24)CC3)C1 (configuration not stated) the results were RecA intein inh 2.3, Mtb H37Rv 2%, Arbovirus inh 2 and Mtb betalactam -1.
Screening Cc1nc(CCN2C(=O)c3ccccc3C2=O)cs1 returned RecA intein inh -2.6, Mtb H37Rv -4%, YopH inh -17, Arbovirus inh 6 and Mtb betalactam -19.
`C/C(=N\NC(=O)c1sccc1C)c1cccnc1` gave RecA intein inh 0.8 and Mtb betalactam -1.
`Cc1ccccc1-n1cc[nH]c1=S` gave RecA intein inh -1.2, Mtb H37Rv -3%, Arbovirus inh -1 and Mtb betalactam -4.
Screening Cc1ccc(NC(=S)N(CCCN2CCOCC2)Cc2ccccn2)cc1 returned RecA intein inh -5.0, Mtb H37Rv -4%, YopH inh -18, Arbovirus inh -5 and Mtb betalactam 3.
For Cc1ccc(S(=O)(=O)CC(C)(O)C(=O)Nc2cccc(C(F)(F)F)c2)cc1 (configuration not stated) the results were RecA intein inh -0.2, Mtb H37Rv -1%, YopH inh -53, Arbovirus inh 12 and Mtb betalactam -10.
Screening CCn1c(=O)cc(SCC(=O)NCc2ccc(C)cc2)c2ccccc21 returned RecA intein inh -1.1, Mtb H37Rv -17%, YopH inh 5, Arbovirus inh -16 and Mtb betalactam -2.
Screening COc1ccc(/C=c2/sc3n(c2=O)C(c2ccccc2OC)C2=C(N=3)c3ccccc3CC2)cc1O (configuration not stated) returned RecA intein inh -5.1, Mtb H37Rv 16%, YopH inh -30, Arbovirus inh -27 and Mtb betalactam 89.
`O=C(Cc1ccccc1)Nc1ccc2c(c1)C(=O)N(CC1CCCO1)C2=O` (configuration not stated) gave RecA intein inh -2.9, Mtb H37Rv -12%, Arbovirus inh -3 and Mtb betalactam 2.
Screening COCCNS(=O)(=O)c1cc2[nH]c3c(c2cc1C)C(=O)CC(C)(C)C3 returned RecA intein inh -1.8 and Mtb betalactam -1.
`CC1CN(C(=O)CN2C(=O)NC(C)(c3ccccc3)C2=O)CC(C)O1` (configuration not stated) gave RecA intein inh 0.4, Mtb H37Rv 0%, YopH inh -26, Arbovirus inh 4 and Mtb betalactam -3.
Screening CN1CCN(S(=O)(=O)c2ccc(NC(=S)NC(=O)C3CCCCC3)cc2)CC1 returned RecA intein inh 0.8, Mtb H37Rv -2%, Arbovirus inh 17 and Mtb betalactam -5.
CCC(=O)N1CCN(c2ccccc2NC(=O)COc2cccc(C)c2)CC1 was read as RecA intein inh 1.9, Mtb H37Rv 6%, YopH inh 2, Arbovirus inh 16 and Mtb betalactam 7.
`Cc1ccccc1CC(=O)N1CCCC1` gave RecA intein inh 2.5 and Mtb betalactam -5.
Screening CCCC(=O)Oc1c(S(=O)(=O)c2ccc(C)cc2)c(C)nn1C(C)(C)C returned RecA intein inh -4.4, Mtb H37Rv -2%, Arbovirus inh -4 and Mtb betalactam -1.
For COc1ccc(NC(=O)c2cnc(SC)nc2C)c(OC)c1 the results were RecA intein inh 1.3 and Mtb betalactam 64.
`Cc1ccnc(NC(=O)c2ccc(Cl)c(S(=O)(=O)N3CCCC3)c2)c1` gave RecA intein inh -4.1 and Mtb betalactam -3.
`O=C(Nc1nc(-c2ccc3ccccc3c2)cs1)C1CCN(S(=O)(=O)c2cccs2)CC1` gave RecA intein inh 0.0, Mtb H37Rv 5%, YopH inh -26, Arbovirus inh 9 and Mtb betalactam 6.
Cc1cccc(OCCCC(=O)NCCc2ccccc2)c1 was read as RecA intein inh -3.8, Mtb H37Rv 2%, YopH inh -20, Arbovirus inh -7 and Mtb betalactam 7.
For CN1C(=O)C(c2ccc([N+](=O)[O-])cc2[N+](=O)[O-])C(=O)N(C)C1=O the results were RecA intein inh 2.6 and Mtb betalactam 0.
For O=C(O)c1[nH]c2ccccc2c1C(c1c(F)cccc1Cl)c1c(C(=O)O)[nH]c2ccccc12 the results were RecA intein inh 3.4 and Mtb betalactam -4.
Screening CC(C)(C)NC(=O)COC(=O)c1ccc(O)cc1 returned RecA intein inh -1.7, Mtb H37Rv -4%, YopH inh -17, Arbovirus inh -3 and Mtb betalactam -3.
Screening CCN(CC)c1cc(C(F)(F)F)nc(-c2ccccn2)n1 returned RecA intein inh 1.2, Mtb H37Rv -3%, YopH inh -17, Arbovirus inh 4 and Mtb betalactam 10.

A draw from above in order of length of the SMILES, low to high.
CCC(=O)N1CCN(c2ccccc2NC(=O)COc2cccc(C)c2)CC1 was read as RecA intein inh 1.9, Mtb H37Rv 6%, YopH inh 2, Arbovirus inh 16 and Mtb betalactam 7.
For Cc1ccc(S(=O)(=O)CC(C)(O)C(=O)Nc2cccc(C(F)(F)F)c2)cc1 (configuration not stated) the results were RecA intein inh -0.2, Mtb H37Rv -1%, YopH inh -53, Arbovirus inh 12 and Mtb betalactam -10.
For CN1C(=O)C(c2ccc([N+](=O)[O-])cc2[N+](=O)[O-])C(=O)N(C)C1=O the results were RecA intein inh 2.6 and Mtb betalactam 0.

Further results
NC(=O)CC(NC(=O)Cc1ccc(Br)cc1)c1ccc(NCc2ccccn2)c([N+](=O)[O-])c1 (configuration not stated) was read as RecA intein inh 0.3, Mtb H37Rv -3% and Mtb betalactam -5.
`Cc1ccc(-n2ncc3c(NNC(=O)c4ccco4)ncnc32)cc1Cl` gave RecA intein inh -3.4 and Mtb betalactam 6.
Screening CCc1ccc(CNn2cnnc2SCC(=O)NC(C)(C)C)cc1 returned RecA intein inh -5.1, Mtb H37Rv -5%, YopH inh 40, Arbovirus inh -11 and Mtb betalactam -3.
For CCc1cc(C(=O)Nc2cc(S(=O)(=O)N(CC)CC)ccc2N2CCOCC2)sc1C the results were RecA intein inh 5.2 and Mtb betalactam -1.
Screening Clc1ccc(-c2ccc(C=Nc3ccc(N4CCOCC4)cc3)o2)c(Cl)c1 returned RecA intein inh -2.7, Mtb H37Rv >100µM*, Arbovirus inh -7 and Mtb betalactam -6.
Cn1c(C2CCCCC2)nc2c1c(=O)[nH]c(=O)n2Cc1ccccc1 was read as RecA intein inh -1.0, Mtb H37Rv -7%, Arbovirus inh -1 and Mtb betalactam 9.
`Cc1cc(C)c2nc(NC(=O)c3cccc(S(=O)(=O)N4CCc5ccccc54)c3)sc2c1` gave RecA intein inh -2.0, Mtb H37Rv 46%, YopH inh -14, Arbovirus inh -1 and Mtb betalactam 37.
CCc1nnc(NC(=O)CSc2nc3cc4c(cc3cc2C)OCCO4)s1 was read as RecA intein inh 0.3, Mtb H37Rv -20%, YopH inh -43, Arbovirus inh -8 and Mtb betalactam -16.
CCOc1ccccc1Nc1nnc(SCC(=O)N2CCCC2)s1 was read as RecA intein inh 0.9, Mtb H37Rv 0%, YopH inh -2, Arbovirus inh 15 and Mtb betalactam -10.
Screening COc1cc2c(cc1OC)C(c1ccccc1Cl)N(C)CC2 (configuration not stated) returned RecA intein inh -2.3 and Mtb betalactam 4.
`CC(=O)Nc1ccc(NC(=O)Cn2nc(C(=O)Nc3ccc(C)cc3)ccc2=O)cc1` gave RecA intein inh 1.5 and Mtb betalactam 4.
`S=C(NCc1ccco1)N1CCN(c2cccc(Cl)c2)CC1` gave RecA intein inh 4.4, Mtb H37Rv 6%, Arbovirus inh 6 and Mtb betalactam -3.
`Cc1nc(C)c(C(=O)C2=C(O)C(=O)N(CCCn3ccnc3)C2c2ccc(Cl)cc2)s1` (configuration not stated) gave RecA intein inh -2.0, Mtb H37Rv -6%, YopH inh -42, Arbovirus inh 3 and Mtb betalactam 4.
`CCCc1cc(=O)[nH]c(SCC(=O)N(CC)Cc2ccccc2)n1` gave RecA intein inh 1.0, Mtb H37Rv -1%, YopH inh -19, Arbovirus inh 5 and Mtb betalactam -4.
For CCC(c1nnnn1C(C)(C)C)N1CCN(Cc2ccccc2OC)CC1 (configuration not stated) the results were RecA intein inh 1.4, Mtb H37Rv -3%, Arbovirus inh 3 and Mtb betalactam -6.
`COc1ccc(C(CC(=O)N2CCCCC2)c2c(OC)cc(OC)c3c(-c4ccccc4)cc(=O)oc23)cc1` (configuration not stated) gave RecA intein inh 20, Mtb H37Rv 0% and Mtb betalactam 22.
For O=C(/C=C/c1ccco1)c1cccnc1 the results were RecA intein inh 7.5 and Mtb betalactam -5.
`Cc1nnc(NC(=O)c2cccc(Br)c2)s1` gave RecA intein inh 4.6, Mtb H37Rv 5%, YopH inh -12, Arbovirus inh 3 and Mtb betalactam 5.
Screening Cc1ccc(NC(=O)Nc2sc(=S)n(C)c2C)cc1 returned YopH inh -25, Arbovirus inh -1 and Mtb betalactam -2.
`CCOCc1nnc(NC(=O)CCc2ccccc2)s1` gave RecA intein inh 0.0, Mtb H37Rv 86%, YopH inh -6, Arbovirus inh 4 and Mtb betalactam -6.
`CCOc1ccc(CCNC(=O)CCS(=O)(=O)c2ccc(OC)cc2)cc1OCC` gave RecA intein inh -0.3, Mtb H37Rv -2%, Arbovirus inh 7 and Mtb betalactam 1.
For COCCNc1nc2nonc2nc1N(C)Cc1ccc(C)cc1 the results were RecA intein inh -0.3, Mtb H37Rv 3%, Arbovirus inh 3 and Mtb betalactam -9.
`Cc1cc(Cl)ccc1OCCCC(=O)NNC(=O)c1ccccc1O` gave RecA intein inh 1.2 and Mtb betalactam -4.

Screening data (PubChem)
